# NS1 function inh = influenza NS1 inhibition; S. cerevisiae slowed by influenza A NS1, growth recovery by OD600; Potency, µM (top dose mostly 46.1 µM), for inactives: top-dose activity, positive = more growth; 270,000 compounds, 0.4% hits; AID 2326; also: actives are rising curves; nearly all actives have a fitted effect of over 50% in size
#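 In this qHTS, NS1 from influenza A is expressed in budding yeast, where it slows growth. Cells are switched from glucose to 2% galactose medium (pH 6.0, -URA), treated with compound, and growth recovery is read at OD600.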
# Cruzain noTriton = inhibitors of Trypanosoma cruzi cruzain without detergent. purified cruzain, Z-FR-AMC fluorescence, no detergent. AID 1476. Potency, µM, inactives show max response, negative = inhibition, most hits filed as inhibitors. 200,000 compounds, 2.3% hits. P25779; active = well fitted curve in the direction sought with a large enough effect; inconclusive = small, poorly fitted or top-dose-only effect, or another doubt; inactive = no such curve, though single readings can be large; an effect the other way counts as inactive or inconclusive;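 also: plate controls were enzyme without inhibitor for no effect and buffer without enzyme for full effect; nearly all actives have a fitted effect of over 40% in size; top concentration of the series not given in the record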
# Target sequence (P25779 123-467 limits assumed): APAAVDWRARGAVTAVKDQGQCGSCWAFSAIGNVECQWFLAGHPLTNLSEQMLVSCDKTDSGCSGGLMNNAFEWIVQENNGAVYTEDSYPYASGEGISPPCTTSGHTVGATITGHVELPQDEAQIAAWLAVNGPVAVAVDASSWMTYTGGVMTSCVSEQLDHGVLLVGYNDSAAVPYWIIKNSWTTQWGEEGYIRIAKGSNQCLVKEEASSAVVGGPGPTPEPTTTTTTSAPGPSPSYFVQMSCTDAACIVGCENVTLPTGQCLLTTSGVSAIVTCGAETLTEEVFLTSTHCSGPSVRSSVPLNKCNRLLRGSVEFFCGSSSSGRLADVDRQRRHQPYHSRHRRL
#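 Detergent-free condition (0.00005% Triton X-100) in acetate buffer pH 5.5 with DTT. 1.5 nM enzyme and compound were pre-mixed 15 min, then 2 uM Z-FR-AMC substrate added; reaction progress from fluorescence change between first and third reads (60 s).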
# SARS PLP yeast = SARS-CoV PLP inhibition in yeast; 330,000 compounds, 0.19% hits; S. cerevisiae expressing SARS-CoV PLpro, growth rescue; control for the full effect not named in the record; Potency, µM (top dose mostly 32.9 µM), for inactives: top-dose activity, positive = growth rescue; AID 485353; also: 0% is about no effect; nearly all actives have a fitted effect of over 55% in size; growth read by luminescence after 48 h
# Marburg entry inh = Marburg virus entry inhibition | 300,000 compounds, 1.8% hits | Potency, µM (titrated, usually from 37.8 µM), inactives show at the top dose activity change, negative = inhibition, actives largely listed as inhibitors | Marburg virus pseudotyped entry inhibition, cell reporter; control for the full effect not named in the record; about a third of the inactives were read at about 46 µM; active = well fitted inhibition curve with a large enough effect; inconclusive = small, poorly fitted or top-dose-only effect, or effect the other way; inactive = flat fitted curve, though single readings scatter; tested in HEK293 cells; about a fifth of its hits are not listed in these tables; also: % is scaled to controls: 0 for no effect and ±100 for the full control effect; luciferase read-out
# Cruzain Triton = inhibitors of Trypanosoma cruzi cruzain with detergent. Potency, µM, for the others: max response, negative = inhibition, usual class: inhibitors. AID 1478. P25779. 200,000 compounds, 0.43% hits. purified cruzain, Z-FR-AMC fluorescence, 0.01% Triton; active = well fitted curve in the direction sought with a large enough effect; inconclusive = small, poorly fitted or top-dose-only effect, or another doubt; inactive = no such curve, though single readings can be large; an effect the other way counts as inactive or inconclusive;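 also: plate controls were neutral wells for no effect and buffer without enzyme for full effect; nearly all actives have a fitted effect of over 40% in size; top concentration of the series not given in the record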
#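 Compounds were screened in titration against cruzain (1.5 nM) with 0.01% Triton X-100 to counter colloidal aggregation. Activity was the AMC fluorescence increase over 60 s after adding 2 uM Z-FR-AMC at pH 5.5.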
# StopGo reporter = FMDV 2A StopGo reporter, luciferase signal; 410,000 compounds, 1.2% hits; Potency, µM (series often up to 57.9 µM), for the others: top-dose signal change, negative = less light; human cells with a luciferase reporter of 2A StopGo recoding; control for the full effect not named in the record; AID 1159524; active = well fitted falling curve with a large enough effect; inconclusive = small, poorly fitted or top-dose-only effect; inactive = no such curve, though single readings can be large or run the other way; tested in HEK293T cells; also: % is scaled to controls: 0 for no effect and ±100 for the full control effect; nearly all actives have a fitted effect of over 45% in size; luciferase light after 4 h
# RE007 growth inh = less growth of the S. pombe RE007 Vpr strain; AID 651644; Potency, µM (series often up to 92.2 µM), for the others: at the top dose activity change, negative = less growth; 360,000 compounds, 0.21% hits; S. pombe RE007 Vpr strain, BacTiter-Glo ATP luminescence, 24 h; control for the full effect not named in the record; active = well fitted falling curve with a large enough effect; inconclusive = small, poorly fitted or top-dose-only effect; inactive = no such curve, though single readings can be large or run the other way;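 also: % is scaled to controls: 0 for no effect and ±100 for the full control effect; nearly all actives have a fitted effect of over 50% in size; the assay follows cell death caused by Vpr and the record does not say whether a fall means rescue or toxicity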
#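 Fission yeast strain RE007, carrying one chromosomally integrated HIV-1 vpr copy, was seeded at OD 0.01 in PMG+AL medium with 23 nL pinned compound. After 24 h at 30 °C and 99% humidity, viability was read by BacTiter-Glo luminescence.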
# Lassa entry inh = inhibitors of Lassa virus binding or cell entry | Lassa virus pseudotype entry inhibition, cell reporter; control for the full effect not named in the record | Potency, µM (series often up to 37.9 µM), without a hit: at the highest dose activity change, negative = inhibition, most hits filed as inhibitors | 300,000 compounds, 1.2% hits; active means well fitted inhibition curve with a large enough effect; inconclusive means small, poorly fitted or top-dose-only effect, or effect the other way; inactive means flat fitted curve, though single readings scatter; tested in HEK293 cells; also: % is scaled to controls: 0 for no effect and ±100 for the full control effect; nearly all actives have a fitted effect of over 50% in size; luciferase read-out
# Numbers without * were called inactive; ? = inconclusive; . = not tested or not shown; & = joins results of further samples; [ ] = dose if it differs, or a comment. Unless noted, calls follow the shape of the dose curve; as a rule, active means well fitted rising curve with a large enough effect; inconclusive means small, poorly fitted or top-dose-only effect; inactive means no such curve, though single readings can be large or run the other way. Potency is read from the fitted curve at half-maximal effect.
Structure,NS1 function inh,Cruzain noTriton,SARS PLP yeast,Marburg entry inh,Cruzain Triton,StopGo reporter,RE007 growth inh,Lassa entry inh
COc1ccc(NC(=O)Cc2cccs2)cc1S(=O)(=O)N1CCCCC1,.,.,2%,-24%,.,21%,5%,1µM*
CCc1cccc(NC(=O)CCS(=O)(=O)c2ccc(Br)cc2)c1,-2%,.,-2%,.,.,10%,-13%,.
CCOC(=O)C1=C(C)OC(N)=C(C#N)C12C(=O)Nc1ccc(C)cc12 (stereo not given),-4%,10%,0%,-17%,3.9%,-4%,3%,-2%
Cc1ccc(S(=O)(=O)NCCC(=O)N2CC(C)OC(C)C2)cc1C (stereo not given),.,.,1%,2%,.,-15%,-12%,-3%
CC(=O)NC(CC(=O)Nc1ccc(S(=O)(=O)N2CCCC2)cc1)c1ccccc1 (stereo not given),-9%,4%,?,-3%,-0.4%,-19%,-14%,-3%
NN=C1c2ccccc2C(=O)C1C(=O)C(c1ccccc1)c1ccccc1 (stereo not given),.,.,.,-6%,.,-10%,-12%,-13%
CCC(=O)Nc1ccc2nc(C3CC3)n(Cc3ccc(C(C)(C)C)cc3)c(=O)c2c1,2%,.,2%,.,.,-25%,-13%,.
CC(CN1CCOCC1)C(C#N)(c1ccccc1)c1ccccc1 (stereo not given),.,.,.,2%[46.1 µM],.,0%,-1%,-21%[46.1 µM]
Cc1onc(-c2c(F)cccc2Cl)c1C(=O)NNC(=O)C1CCN(Cc2ccccc2)CC1,.,.,-1%,?,.,-3%,-2%,-5%
Brc1ccc(-c2nnc(-c3cccnc3)o2)cc1,.,.,.,8%,.,27%,-7%,?
Cc1c(CCC(=O)NCCCN2CCCC2=O)c(=O)oc2c(C)c(O)ccc12,3%,.,-8%,.,.,-13%,-14%,.
CCCOc1cccc(C2/C(=C(/O)c3ccncc3)C(=O)C(=O)N2CCCN(C)C)c1 (stereo not given),3%,-1%,2%,.,-0.7%,.,.,.
O=[N+]([O-])c1cc(CN2CCC(O)CC2)ccc1Cl,.,.,1%,3%,.,-4%,-15%,23%
Cc1ccc(S(=O)(=O)N2CCOCC2)cc1C(=O)OCC(=O)N1CCc2ccccc2C1,-2%,?,0%,-25%,1.1%,?,5%,?
Cc1nnc(SC(C(=O)Nc2cc(Cl)cc(Cl)c2)c2ccccc2)[nH]c1=O (stereo not given),-19%,.,-5%,1%,.,-25%,3%,-8%
O=C1C=CC(=O)N1c1ccc2c(c1)Cc1cc(F)ccc1-2,.,.,.,-13%[46.1 µM],.,-12%,2.8µM*,-18%[46.1 µM]
CCCOc1ccc(-c2nc(C#N)c(N3CCN(CC)CC3)o2)cc1,0%,-3%,-4%,3%,-10.0%,-23%,-11%,5%
CCC(=NCc1cccnc1)c1c(O)n(-c2ccccc2C)c(=O)[nH]c1=O,2%,.,0%,-2%[14.2 µM],.,-6%,0%,4%
CCN(CC)c1ccc(/C=C(\C#N)c2nc(-c3cccs3)c(NC(C)=O)s2)cc1,?,16µM*,-3%,-7%,-3.6%,.,.,.
COc1cccc(/C=C2/NC(=O)NC2=O)c1OCC(=O)Nc1ccccc1,.,.,1%,?,.,-23%,-17%,1%[46.1 µM]
O=C(O)C1C2CCC(CC2)C1C(=O)N1CCN(Cc2ccc(F)cc2)CC1 (stereo not given),-11%,.,-5%,.,.,2%,-7%,.
CC(=O)Nc1ccccc1C(=O)N1CC(C)OC(C)C1 (stereo not given),2%,-5%,13%,2%,2.8%,0%,-3%,0%
COc1ccc(CNC(=O)CCC(=O)c2ccc(F)cc2)cc1OC,.,.,-8%,-1%,.,2%,-2%,-9%
CCC(=O)N1CCc2cc(S(=O)(=O)CCC(=O)Nc3c(C)n(C)n(-c4ccccc4)c3=O)ccc21,1%,.,.,26%,.,17%,19%,-1%
Cc1cc(C)nc(N(C#N)S(=O)(=O)c2ccccc2Cl)n1,1%,-20%,-7%,2%,-3.2%,-1%,3%,17%
O=C(Nc1ncc([N+](=O)[O-])s1)c1ccc2c(c1)OCO2,-124%,.,-13%,1.6µM*,.,3.2µM*,?,?
C=CCNC(=O)c1ccccc1NC(=O)C1CC(=O)N(C(C)C)C1 (stereo not given),8%,.,3%,?,.,-9%,5%,5%
CCN=C1Cn2c(nc3scc(-c4ccccc4)c3c2=O)CN1CC,-40%,-13%,4%,22%,3.6%,-18%,3%,?
CCCCCCCCCCCCC/C=C\[C@@H](O)[C@@H](N)CO,.,11%,.,?,2.1%,-4%,.,.
CC(=O)Nc1ccc(S(=O)(=O)NCC2CCC(C(=O)NC(C)c3ccccc3)CC2)cc1 (stereo not given),.,.,0%,3%[46.1 µM],.,-6%,8%,-20%[46.1 µM]
Cc1ccc(S(=O)(=O)N2CC3(C)CN(S(=O)(=O)c4ccc(C)cc4)CC(C)(C2)C3)cc1,-1%,?,7%,7%,2.7%,4%,-15%,16%
O=C(N/N=C/C(Cl)=C\c1ccccc1)c1cnccn1,-10%,0%,-7%,1%,-3.8%,38%[activator],-14%,-6%
Fc1ccc(OCCOCCN2CCCC2)cc1,.,.,.,?,.,-7%,-5%,5%[46.1 µM]
O=[N+]([O-])c1ccc(/C=N/Nc2ccc3ccccc3c2)o1,5%,?,-33%,-11%,-11%,-17%,-15%,3%
CC(=O)N/C(=C\c1ccccc1)C(=O)OCC(=O)NC(C)C12CC3CC(CC(C3)C1)C2 (stereo not given),-10%,15%,-3%,-18%,-5.4%,-27%,-9%,-19%
O=C(OCC(=O)c1ccc(Cl)cc1Cl)c1ccc2c(c1)C(=O)N(c1cccc3ncccc13)C2=O,3%,20µM*,-1%,5%,6.4%,-11%,-21%,-8%
Cc1cccc(COCC(Cc2ccccc2)N2CCN(C(=O)c3ccc(Cl)c(Cl)c3)CCC2=O)c1 (stereo not given),29%,-3%,-13%,-45%,-9.8%,?,2%,15µM*
C/C=C/Cn1c(N2CCCCCC2)nc2c1c(=O)[nH]c(=O)n2C,-12%,-10%,-2%,3%,0.1%,?,9%,-22%
CN(C)S(=O)(=O)c1ccc(SCC(=O)Nc2ccc3c(c2)OCCO3)nc1,.,.,-1%,?,.,13%,0%,-2%
COC(CSc1ncnc2c1oc1nc3c(cc12)COC(C)(C)C3)OC,0%,.,0%,.,.,13%,19%,.
O=C1CC(N2CCN(S(=O)(=O)c3ccc(Cl)cc3)CC2)C(=O)N1CCc1ccccc1 (stereo not given),-19%,22%,-21%,-17%,-3.9%,-22%,-12%,-14%
CC(=N)C1=C(O)CC(C)(C)CC1=O,-1%,7%,-11%,21%[46.1 µM],5.6%,-19%,3%,1%
CCOc1ccc(OCC(=O)NCCS(=O)(=O)N2CCN(c3ccc(OC)cc3)CC2)cc1,.,-6%,.,.,-0.3%,36%[activator],.,7%[46.1 µM]
O=C(CSc1nnc(-c2cccc(F)c2)o1)Nc1nncs1,.,.,4%,-7%[46.1 µM],.,0%,-12%,6%
CC(C)Oc1ccc(/C(O)=C2/C(=O)C(=O)N(Cc3cccnc3)C2c2ccco2)cc1 (stereo not given),3%,6%,6%,17%[46.1 µM],-1.6%,14%,0%,4%
CCCCN1CCC(C#N)(Nc2ccccc2)CC1,-2%,8%,15%,-2%&-2%,4.7%,10%,-1%,2%
Cc1cc(C)c2cc(C(=O)N3CCC(C(=O)c4ccc(F)cc4)CC3)[nH]c2c1,3%,.,-5%,?,.,-15%,2%,-20%
CCc1ccc(S(=O)(=O)c2cn(C)c3ccc(C)cc3c2=O)cc1,.,-1%,.,5%[46.1 µM],-2.5%,49%[activator],.,-3%[46.1 µM]
COc1ccc2c(c1)c(N=NC(N)=S)c(O)n2CC(=O)c1ccccc1,8%,.,8%,.,.,-4%,2%,.
Cc1onc(-c2ccccc2)c1C(=O)N1CCCC1,?,.,2%,.,.,24%,-15%,.
O=S(=O)(c1cc(F)ccc1F)N1CCC2(CC1)OCCO2,-1%,.,-4%,.,.,-13%,17%,.
O=C(CCNS(=O)(=O)c1ccccc1)OCC(=O)c1ccc(F)cc1,.,.,2%,?,.,4%,-4%,-17%[46.1 µM]
COc1cc(Cl)c(C)cc1NC(=O)c1cnc2c(-c3cccc(C)c3)c(C)nn2c1C,.,-5%,.,.,-4.8%,-5%,.,-6%[46.1 µM]
CC(=O)NC1(C2CCCCC2=O)CCCCC1 (stereo not given),-2%,-12%,3%,-8%,-2.9%,-1%,11%,16%
CC1(C)CC(=O)C(C=NCCN2CCN(CC(=O)Nc3ccc(Cl)cc3)CC2)=C(O)C1,.,.,0%,-12%,.,-13%,3%,-5%
CC(=O)NC(Cc1c[nH]c2ccccc12)C(=O)Nc1ccc2c(c1)OCO2 (stereo not given),-3%,-14%,1%,?,0.2%,4%,9%,19%
Cc1ccccc1NS(=O)(=O)c1ccc(C(=O)NCC(c2ccccc2)N(C)C)cc1 (stereo not given),5%,.,9%,11µM*,.,-15%,-2%,-1%
CCC(=O)N1c2ccccc2C(C)(c2ccccc2)CC1(C)C (stereo not given),.,6%,.,-24%[46.1 µM],-4.8%,1%,.,18%[46.1 µM]
N#Cc1ccc(CN2CCN(C(=O)Cn3nc(C(N)=O)c4ccccc4c3=O)CC2)cc1,-9%,.,-1%,2%[46.1 µM],.,-21%,-10%,2%
CC(C)Cn1c(N2CCN(CC(=O)Nc3ccc(Cl)cc3)CC2)nc2ccccc21,3%,.,1%,?,.,-13%,-1%,4%[46.1 µM]

# Later entries.
Structure,NS1 function inh,Cruzain noTriton,SARS PLP yeast,Marburg entry inh,Cruzain Triton,StopGo reporter,RE007 growth inh,Lassa entry inh
COc1ccc(C(=O)COC(=O)Cn2cnc3ccccc3c2=O)c(OC)c1,.,.,5%,-20%,.,27%,-17%,-3%
CCOc1ccc2c(c1)S/C(=C\c1cccs1)C(=O)N2,-33%,.,-1%,.,.,83%[activator],-6%,.
COc1ccc(NC(=O)Nc2nccs2)cc1,-3%,-21%,-6%,-10%,0.5%,43%[activator],13%,-22%
Cc1ccc2c(c1)C(c1ccc(F)cc1)N(C(=O)C1CC1)CC(=O)N2 (stereo not given),-1%,-3%,-2%,.,1.3%,0%,4%,.
